From PubChem
YopH inh: inhibitors of Yersinia enterocolitica YopH tyrosine phosphatase; fluorescence Ex485/Em525; inhibition, %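 (about 10 µM by stock and volumes)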; hit rate 0.16% among 140,000; AID 898;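 active means inhibition of 50% or more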;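 further: controls were vehicle for no effect and minimum signal wells for full effect; inactives centre near -20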
Mtb betalactam: beta-lactam sensitization of Mtb H37Rv | inhibition, % at 25 µM | hit rate 0.27% among 330,000 | M. tuberculosis H37Rv growth with meropenem, percent inhibition; hits of this screen are not shown here | AID 434955;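 active means about 74% or more and at least 40 points above the plate without the antibiotic, then above 30% in a dose series; inconclusive means first-round hits that could not be retested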;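 further: growth measured after seven days incubation then overnight dye step; 0% = bacteria only wells and 100% = bacteria with antibiotic; twin plates without the antibiotic show which effects depend on it; some results filed as inactive read as strong as hits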
Mtb H37Rv: M. tuberculosis H37Rv growth inhibitors, H37Rv strain (AID 1626); M. tuberculosis H37Rv growth inhibition; higher % means a stronger effect; inhibition, % at 10 µM, or IC50 in µM where a hit was titrated; hit rate 0.95% among 220,000;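 active means confirmed in a dose series; inconclusive means inhibition above 80% but not taken into the dose series; inactive means below 80% or under 30% at every dose of the series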;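 further: bacteria incubated seven days before Alamar blue readout; 0% = bacteria only wells and 100% = bacteria with antibiotic wells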
Arbovirus anti: blocks arbovirus infection; inhibition, % at 10 µM; hit rate 0.37% among 200,000; arbovirus infection cell-based antiviral screen;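 active means inhibition from about 30%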;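 further: bluetongue infection of BSR cells; cell survival read as ATP light after 72 h; 0% = infected wells without compound and 100% = uninfected wells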
RecA intein inh: Mtb RecA intein splicing inhibition | inhibition, %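 (about 9 µM by stock and volumes)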 | hit rate 0.75% among 290,000 | AID 2221 | cell-free RecA intein splicing, fluorescence; in the data active means inhibition above about 30%; inconclusive means no clear call, values can overlap the other calls;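 further: 0% = vehicle wells and 100% = reference inhibitor control wells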
Target sequence (P9WHJ3 whole entry, looked up): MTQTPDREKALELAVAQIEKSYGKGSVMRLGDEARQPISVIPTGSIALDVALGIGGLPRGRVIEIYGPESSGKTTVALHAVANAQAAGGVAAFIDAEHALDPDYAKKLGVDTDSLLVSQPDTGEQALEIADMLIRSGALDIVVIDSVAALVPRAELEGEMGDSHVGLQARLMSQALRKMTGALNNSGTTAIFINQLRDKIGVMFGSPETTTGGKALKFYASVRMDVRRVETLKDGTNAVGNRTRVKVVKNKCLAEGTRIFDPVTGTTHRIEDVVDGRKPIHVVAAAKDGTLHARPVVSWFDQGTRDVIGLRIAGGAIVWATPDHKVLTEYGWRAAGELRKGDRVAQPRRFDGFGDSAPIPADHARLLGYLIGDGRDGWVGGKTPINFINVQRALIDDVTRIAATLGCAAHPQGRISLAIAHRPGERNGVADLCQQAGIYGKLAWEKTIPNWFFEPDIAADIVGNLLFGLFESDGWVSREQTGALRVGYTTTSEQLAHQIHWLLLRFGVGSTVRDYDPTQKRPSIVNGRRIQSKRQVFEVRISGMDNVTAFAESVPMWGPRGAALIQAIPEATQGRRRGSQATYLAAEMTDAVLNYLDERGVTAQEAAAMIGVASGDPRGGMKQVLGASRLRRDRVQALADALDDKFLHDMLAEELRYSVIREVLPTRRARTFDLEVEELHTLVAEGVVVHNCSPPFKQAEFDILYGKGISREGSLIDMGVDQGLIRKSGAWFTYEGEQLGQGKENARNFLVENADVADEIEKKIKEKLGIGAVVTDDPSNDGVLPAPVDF
Arbovirus anti repeat: recorded beside Arbovirus anti, whose call it bears; inhibition, %; measured here: 10K subset replicate screen; many hits read low in the repeat;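 first of two repeat runs on a subset; 0% = infected and 100% = uninfected wells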
The depositor's hits bear a star; ? = inconclusive; nt = not tested or not shown. An excerpt (hit frequency here may not be typical).

SMILES | YopH inh | Mtb betalactam | Mtb H37Rv | Arbovirus anti | RecA intein inh | others
O=C(O)c1ccc(Cl)cc1Nc1nc2cc(Cl)ccc2o1 | nt | 1 | nt | nt | 4.6
Cc1c(/C=C/C(=O)c2ccc(Cl)s2)cnn1C | -6 | 12 | -6% | -3 | -1.1
O=C(CNC1CCCCC1)NCC1(c2ccccc2)CCCC1 | nt | -7 | -2% | 0 | 2.5
Cc1cc(C(=O)CSc2cccc[n+]2[O-])c(C)n1-c1ccc(OC(F)F)cc1 | nt | 3 | ? | nt | -2.5
CN(C)c1cc[n+](CC(=O)Nc2cccc([N+](=O)[O-])c2)cc1 | nt | -1 | nt | nt | -1.1
CC(C)Nc1ccc(C(CC(N)=O)NC(=O)Cc2ccc(Cl)cc2)cc1[N+](=O)[O-] (centres undefined) | nt | -9 | -14% | nt | 0.1
Cc1cc(=O)[nH]c(SCCCOc2ccc3c(c2)CCC3)n1 | -28 | 4 | 23% | 17 | -0.4
COc1ccc(NC(=O)c2cccnc2)c([N+](=O)[O-])c1 | nt | 0 | 3% | -12 | -8.8
COc1cccc(CN2CCNC(=O)C2CC(=O)NCCc2nc(C)c(C)s2)c1OC (centres undefined) | nt | 0 | 2% | -6 | -5.8
COC(=O)c1cn(C(C)C(=O)NCc2ccco2)c2ccccc12 (centres undefined) | -25 | -9 | -1% | 3 | 0.4 | Arbovirus anti repeat=-1
Cc1cc(C)nc(N2CCCC(C(=O)NCCc3ccccc3F)C2)n1 (centres undefined) | -3 | 4 | -3% | 3 | 12
CCOC(=O)c1nnc2c(Br)c(-c3ccccc3)nn2c1C | -19 | -1 | -3% | -4 | 1.8
CC(C)Cn1c(=O)c2c(nc3n2CCCN3Cc2ccccc2)n(C)c1=O | nt | 3 | nt | nt | 9.0
Cc1ccc(S(=O)(=O)N2CCCC(C(=O)N3CCC4(CC3)OCCO4)C2)cc1 (centres undefined) | -10 | -5 | -3% | 6 | 2.5
COc1ccc(NC(=O)c2ccc(S(=O)(=O)N3CCOCC3)cc2)c(OC)c1 | -36 | 12 | -4% | -2 | 0.0
COc1cc(C(CN)CC(=O)O)ccc1O (centres undefined) | nt | 4 | -8% | nt | -2.9
Cc1cccc(CNc2ccc(C(CC(N)=O)NC(=O)Cc3cccc4ccccc34)cc2[N+](=O)[O-])c1 (centres undefined) | nt | -1 | 2% | nt | -1.0
CN(C)c1ccc(-c2nn3c(-c4cccnc4)nnc3s2)cc1 | nt | ? | 2% | nt | -11
Cc1cc(C)c2nc(N3CCC(C(=O)N4CCN(c5ncccn5)CC4)CC3)sc2c1 | -39 | 98 | 66% | 2 | -0.8
Cc1noc(C)c1COc1ccc(C(=O)OCC(=O)NCc2ccccc2Cl)cc1 | -35 | 6 | 2% | 0 | 4.4
CCc1ccc(C2=NN(CCC(=O)NC3CC3)C(=O)CC2)cc1 | -26 | 2 | 4% | -5 | -2.0
COc1ccccc1CN1CCCC(N2CCN(c3ccc(F)cc3)CC2)C1 (centres undefined) | nt | -7 | nt | nt | 1.5
Cn1c(Cc2cccc3ccccc23)nnc1SCC(=O)N1CCN(c2ccccc2)CC1 | -32 | 0 | -1% | -32 | 1.4
O=S(=O)(NCc1ccccc1)c1ccc(Br)c2nsnc12 | nt | -9 | nt | nt | 5.0
CC1=C(C(=O)N2CCCC(N3CCN(c4ccccc4F)CC3)C2)OCCO1 (centres undefined) | nt | -21 | nt | nt | -4.6

Next structures
SMILES | YopH inh | Mtb betalactam | Mtb H37Rv | Arbovirus anti | RecA intein inh | others
Cc1ccc(OCCOCCn2ccnc2)c(Br)c1 | 2 | 53 | -9% | 1 | -4.3
O=c1oc2cc(Oc3ccc(C(F)(F)F)cc3[N+](=O)[O-])ccc2c2c1CCC2 | -20 | 6 | -2% | -7 | -4.2
O=C(O)c1cc(N2CCOCC2)nc2ccccc12 | nt | 4 | nt | nt | 0.6
CCOc1ccc(OCC)c(NC(=O)c2ccc(CNc3c(N4CCCC4)c(=O)c3=O)cc2)c1 | nt | 9 | 23% | nt | 0.7
CCN(CC)C(=O)CN(c1ccc(Cl)cc1)S(=O)(=O)c1ccccc1 | -18 | -4 | -13% | 4 | 0.9
c1ccc(OCc2nn3c(-c4n[nH]c5c4CCC5)nnc3s2)cc1 | nt | 44 | 1.2µM* | nt | 1.5
CC(=O)c1ccc(N(C(=O)c2csnn2)C(C(=O)NC(C)(C)C)c2cccs2)cc1 (centres undefined) | nt | 14 | -9% | -2 | -0.8
Clc1ccccc1-c1nc(N/N=C/c2cccnc2)c2ccccc2n1 | -4 | 10 | 8% | -34 | -3.7
COc1ccc(N2CCN(C(=O)CCCCCn3c(=O)[nH]c4ccsc4c3=O)CC2)cc1 | nt | -1 | 1% | 5 | -3.9
O=C(CN1CCCC1)OCCCc1ccccc1 | -21 | -1 | -3% | 2 | 1.4
COc1ccc(-n2c(C)c([N+](=O)[O-])c3ccc(O)c(CN4CCCCC4)c32)cc1 | -4 | -11 | 0% | 8 | -3.0
COC(=O)[C@@H](NCc1cccc(CN([C@H](C(=O)OC)C(C)C)S(C)(=O)=O)c1)C(C)C | nt | -9 | nt | nt | -3.9
Cc1cc(C)c2nc(C(F)(F)F)nc(NCCCN3CCOCC3)c2c1 | -16 | 10 | 1% | -33 | 1.3
C1=C(c2c[nH]c3ccccc23)CCN(Cc2ccccc2)C1 | nt | -5 | -1% | -19 | 1.3
COc1cc(C(=O)OCC2CC(c3ccccc3)=NO2)cc(OC)c1OC (centres undefined) | nt | -8 | 5% | 5 | 0.2
O=C(Nc1nnc(C(F)(F)F)s1)C1COc2ccccc2O1 (centres undefined) | -26 | 3 | -6% | 24 | -2.0
Cn1nc(-c2ccccc2)c(N2CCCCC2)cc1=O | nt | -5 | 4% | -12 | 3.3
O=C(CN(Cc1ccccc1)S(=O)(=O)c1ccc(F)cc1)NCc1ccccn1 | nt | -1 | nt | nt | -0.2
O=C(Nc1ccc(Cc2ccncc2)cc1)C1CCC(N2C(=O)C3C4C=CC(C5CC45)C3C2=O)CC1 (centres undefined) | -9 | 44 | 7% | -22 | 0.4
CC1CCCCC1NC(=O)COC(=O)c1cc(=O)c2ccccc2o1 (centres undefined) | nt | -2 | -2% | 6 | -2.3
CC(C)(C)OC(=O)N1CCC[C@H]1c1nnc(SCc2cccc(Cl)c2)o1 | nt | -6 | 10% | nt | 2.5
O=C(/C=C/c1ccco1)Oc1ccc(C(=S)N2CCOCC2)cc1 | nt | -1 | 0% | -4 | 0.6
Cc1cc(N/C=C\c2nnnn2-c2ccc(F)cc2)no1 | -38 | 8 | -3% | -3 | -0.9
CN(C)Cc1c(-c2ccc(Cl)cc2)nc2ccccn12 | nt | -2 | 2% | 3 | -0.6
c1ccc(Cn2nnnc2C(c2cccnc2)N2CCN(c3ccccc3)CC2)cc1 (centres undefined) | -39 | 3 | -4% | 3 | -1.3

An excerpt from above in order of molar mass, falling:
SMILES | YopH inh | Mtb betalactam | Mtb H37Rv | Arbovirus anti | RecA intein inh | others
CCOc1ccc(OCC)c(NC(=O)c2ccc(CNc3c(N4CCCC4)c(=O)c3=O)cc2)c1 | nt | 9 | 23% | nt | 0.7
COc1ccc(N2CCN(C(=O)CCCCCn3c(=O)[nH]c4ccsc4c3=O)CC2)cc1 | nt | -1 | 1% | 5 | -3.9
O=C(CN(Cc1ccccc1)S(=O)(=O)c1ccc(F)cc1)NCc1ccccn1 | nt | -1 | nt | nt | -0.2
c1ccc(Cn2nnnc2C(c2cccnc2)N2CCN(c3ccccc3)CC2)cc1 (centres undefined) | -39 | 3 | -4% | 3 | -1.3
CC(C)(C)OC(=O)N1CCC[C@H]1c1nnc(SCc2cccc(Cl)c2)o1 | nt | -6 | 10% | nt | 2.5
COc1ccc(-n2c(C)c([N+](=O)[O-])c3ccc(O)c(CN4CCCCC4)c32)cc1 | -4 | -11 | 0% | 8 | -3.0
O=c1oc2cc(Oc3ccc(C(F)(F)F)cc3[N+](=O)[O-])ccc2c2c1CCC2 | -20 | 6 | -2% | -7 | -4.2
CCN(CC)C(=O)CN(c1ccc(Cl)cc1)S(=O)(=O)c1ccccc1 | -18 | -4 | -13% | 4 | 0.9
COc1cc(C(=O)OCC2CC(c3ccccc3)=NO2)cc(OC)c1OC (centres undefined) | nt | -8 | 5% | 5 | 0.2
Cc1cc(C)c2nc(C(F)(F)F)nc(NCCCN3CCOCC3)c2c1 | -16 | 10 | 1% | -33 | 1.3
Clc1ccccc1-c1nc(N/N=C/c2cccnc2)c2ccccc2n1 | -4 | 10 | 8% | -34 | -3.7
O=C(/C=C/c1ccco1)Oc1ccc(C(=S)N2CCOCC2)cc1 | nt | -1 | 0% | -4 | 0.6
c1ccc(OCc2nn3c(-c4n[nH]c5c4CCC5)nnc3s2)cc1 | nt | 44 | 1.2µM* | nt | 1.5
O=C(Nc1nnc(C(F)(F)F)s1)C1COc2ccccc2O1 (centres undefined) | -26 | 3 | -6% | 24 | -2.0
Cc1ccc(OCCOCCn2ccnc2)c(Br)c1 | 2 | 53 | -9% | 1 | -4.3
CN(C)Cc1c(-c2ccc(Cl)cc2)nc2ccccn12 | nt | -2 | 2% | 3 | -0.6
O=C(O)c1cc(N2CCOCC2)nc2ccccc12 | nt | 4 | nt | nt | 0.6
O=C(CN1CCCC1)OCCCc1ccccc1 | -21 | -1 | -3% | 2 | 1.4

Quoted from above (2 entries):
SMILES | YopH inh | Mtb betalactam | Mtb H37Rv | Arbovirus anti | RecA intein inh | others
CN(C)Cc1c(-c2ccc(Cl)cc2)nc2ccccn12 | nt | -2 | 2% | 3 | -0.6
c1ccc(Cn2nnnc2C(c2cccnc2)N2CCN(c3ccccc3)CC2)cc1 (centres undefined) | -39 | 3 | -4% | 3 | -1.3

Other records follow.
SMILES | YopH inh | Mtb betalactam | Mtb H37Rv | Arbovirus anti | RecA intein inh | others
O=C1[C@H]2[C@@H](c3ccc(F)cc3)N3C(=O)N(c4ccc(Br)cc4)C(=O)[C@@]3(Cc3ccc(Cl)cc3)[C@H]2C(=O)N1C1CCCCC1 | nt | -6 | nt | nt | 5.5
Cc1ccc(C(=O)C2=C(O)C(=O)N(CC3CCCO3)C2c2ccccc2F)o1 (centres undefined) | nt | 9 | nt | nt | 2.5
O=c1cc(-c2ccccc2)nc(SCc2ccccc2)[nH]1 | -20 | -1 | 5% | 3 | 2.4
C/C(=N\NC(=O)c1nnn(-c2nonc2N)c1-c1cccs1)c1ccncc1 | nt | 0 | nt | nt | -0.9
CCOc1[nH]n(-c2ccccc2)c(=O)c1C=Nc1ccccc1 | nt | 35 | 1% | -6 | 3.2
CSc1c(SCc2ccccc2)cnn(Cc2ccccc2)c1=O | -32 | -1 | 12% | 2 | 1.2
CCCC(=O)c1c(NC)cc(C)oc1=O | -39 | ? | -9% | -2 | 7.2 | Arbovirus anti repeat=2
OCCNCCCCCOc1ccc(F)cc1 | -25 | 3 | -8% | 2 | 0.5 | Arbovirus anti repeat=-2
Clc1ccc(-c2nnc(NCCN3CCCC3)c3ccccc23)cc1 | nt | 5 | nt | nt | 2.2
CC(C)CN(C(=O)COC(=O)c1c2c(nc3ccccc13)CCC2)c1c(N)n(Cc2ccccc2)c(=O)[nH]c1=O | nt | -8 | nt | nt | 4.0
NC(N)=N/N=C/c1ccc(N2CCOCC2)cc1 | nt | -1 | 6% | -10 | -4.5
CCC1CCc2sc(C(=O)N(C)CC(=O)Nc3ccc(OC)cc3)cc2C1 (centres undefined) | nt | -9 | nt | nt | 2.4
CSc1ccccc1OCc1cc(C(=O)N2CCNC(=O)C2)no1 | nt | ? | nt | nt | 2.8
CCOC(=O)C1=C(O)C(=O)N(Cc2ccc(C(C)(C)C)cc2)CC1 | nt | 5 | -7% | 6 | 0.2
COc1ccc2c(COC(=O)c3cccc(S(=O)(=O)NCC(C)C)c3)cc(=O)oc2c1 | nt | -7 | nt | nt | 3.0
COCCCNCC(=O)c1c(N)n(Cc2ccccc2)c(=O)n(C)c1=O | -36 | 6 | -7% | -1 | 2.7
O=C(NCC(c1ccco1)N1CCc2ccccc21)c1cccc([N+](=O)[O-])c1 (centres undefined) | nt | -12 | nt | nt | 2.5
Cc1ccc(NS(=O)(=O)c2cc(C(=O)N3CCCC3)ccc2C)cc1C | nt | -6 | -6% | 5 | 7.2
Cc1ccc(NC(=O)c2cc(-c3cccs3)nc3ccccc23)nc1 | nt | 8 | 19% | nt | 2.9
CC(=O)Nc1cccc(-c2csc(Nc3ncccn3)n2)c1 | nt | nt | -3% | -3 | 2.4
O=C1c2sc3nc4c(c(=O)n3c2C(=O)N1c1ccccc1)CCC4 | -42 | -14 | -20% | 8 | 2.3
Cc1ccc(NC(=O)Cn2c(-c3ccc(F)cc3)cnc2SCC(=O)Nc2c(C)cccc2C)cc1 | -50 | 1 | 4% | -18 | -3.3
CC(=O)Nc1ccc2nc(CN3CCC(CO)(CCc4ccccc4)CC3)ccc2c1 | nt | -6 | 5% | nt | 2.4
CC(CN1C(C)CCCC1C)OC(=O)c1ccc(Cl)cc1Cl (centres undefined) | nt | -11 | -2% | 3 | -1.8
